GLA inh pH 4.5 = inhibitors of human alpha-galactosidase A at pH 4.5 | activity change, negative = inhibition, % at 105 µM | P06280 | AID 1467 | 230,000 tested, under 10 active | purified enzyme, 4-MU-alpha-Gal fluorescence, pH 4.5; inconclusive = small, poorly fitted or top-dose-only inhibition, or a rising curve; inactive = flat fitted curve, though single readings scatter; no compound was filed as active;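 further: 0% = full activity with enzyme and -100% = basal without enzyme; dose as in the result columns while the protocol names 77 µM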
Target sequence (P06280 whole entry, looked up): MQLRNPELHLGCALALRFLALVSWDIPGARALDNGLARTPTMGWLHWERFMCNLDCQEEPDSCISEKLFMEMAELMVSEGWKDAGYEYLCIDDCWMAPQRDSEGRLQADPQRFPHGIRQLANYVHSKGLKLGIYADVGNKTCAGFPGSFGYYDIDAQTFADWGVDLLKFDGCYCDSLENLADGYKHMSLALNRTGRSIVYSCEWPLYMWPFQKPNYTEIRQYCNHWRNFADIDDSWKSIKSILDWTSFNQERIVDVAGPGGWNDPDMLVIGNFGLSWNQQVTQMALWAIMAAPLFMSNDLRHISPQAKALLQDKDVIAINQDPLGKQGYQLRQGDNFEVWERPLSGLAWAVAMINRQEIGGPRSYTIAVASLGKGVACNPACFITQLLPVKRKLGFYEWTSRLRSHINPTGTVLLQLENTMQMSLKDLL
Rango dissoc inh = prevents RanGTP from dissociating the Rango-importin beta complex; O95149+P62826; Biochemical FRET Rango-importin beta, RanGTP-induced dissociation; Potency, µM (highest dose often 46.1 µM), for inactives: at the top dose activity change, negative = inhibition; 340,000 compounds, 0.071% hits; AID 540253; active means falling FRET ratio curve, often poorly fitted, with flat reads before Ran was added; inconclusive means other falling curves, or compound fluorescence or quenching; inactive means flat or rising ratio curve;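 further: potency means the concentration at half of the fitted maximal effect; % of control where 0% means no effect; nearly all actives have a fitted effect of over 45% in size; -100% = wells without RanGTP and RCC1; the record marks most hits as doubtful in a second field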
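FRET read at 45 min, room temperature: inhibitors block the CFP/YFP signal rise when RanGTP (0.6 uM Ran, 2 mM GTP, 0.2 uM RCC1) frees Rango (0.1 uM) from importin beta (0.25 uM). Pre-read after 5 min compound exposure flags interference.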
miR-21 FLuc = raises the signal of a miR-21 reporter | HeLa miR-21 FLuc reporter, luciferase, 48 h | Potency, µM (doses to about 38.3 µM), for the others: at the top dose reporter change, positive = more light | 340,000 tested, under 10 active; active = well fitted rising curve with a large enough effect; inconclusive = small, poorly fitted or top-dose-only effect; inactive = no such curve, though single readings can be large or run the other way;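 further: % of control where 0% means no effect; miR-21 action dims this reporter so a rising signal means less miR-21 action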
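HeLa cells endogenously expressing miR-21, stably carrying CMV-driven firefly luciferase with a downstream miR-21 binding site, 2000 cells/well. Titrations up to approximately 40 uM, 48 hours; luciferase luminescence read.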
Rango complex inh = Rango-importin beta binding inhibition. Q14974. Rango CFP/YFP FRET sensor + importin beta, 45 min. Potency, µM (titrated, usually from 92.2 µM), for the others: at the highest dose inhibition of complex formation. 340,000 compounds, 0.031% hits; active = rising FRET ratio curve, often small or poorly fitted; inconclusive = mostly compound fluorescence or quenching in the first reads; inactive = flat curves in all reads;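 further: potency means the concentration at half of the fitted maximal effect; 0% = DMSO wells and 100% = buffer wells lacking importin beta; nearly all actives have a fitted effect of over 15% in size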
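Inhibition scored from the CFP 486 nm/YFP 530 nm FRET ratio 45 min after adding 0.125 microM importin beta to 50 nM Rango biosensor preincubated 5 min with compound (room temperature, PBS with DTT, Tween-20, BSA). No-importin wells as positive control.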
* hit, by the source's call; u = inconclusive; x = not tested or not shown; & = joins results of further samples; [ ] = remark or other dose. An excerpt, so the mix of outcomes need not match the whole.

SMILES	GLA inh pH 4.5	Rango dissoc inh	miR-21 FLuc	Rango complex inh
CCOc1ccc(CNC(=O)c2ccco2)cc1	2	8%	-16%	-1.7%
COc1ccc(C(=O)CSc2nnc(C3CC3)n2N)cc1	-1	8%	-12%	2.4%
COc1ccc(OC)c(/C=C/C(=O)OCC(=O)N2CCN(S(=O)(=O)c3ccc(C)cc3C)CC2)c1	x	-12%	x	0.6%
O=C(CSc1ccc(Br)cc1)NC1CCS(=O)(=O)C1 (stereo not given)	x	36%	x	3.2%
C[C@H](CO)N1C[C@H](C)[C@@H](CN(C)C(=O)Nc2ccc(C(F)(F)F)cc2)Oc2ccc(NS(=O)(=O)c3ccc(F)cc3)cc2C1=O	x	13%	x	-4.6%
CCOc1ccc(CCNC(=O)C2=C(C)C(=O)OC23CCC(C)CC3)cc1OCC (stereo not given)	1	-6%	6%&5%	u
O=C(Nc1nncs1)C1CCCC1	x	-9%	x	-3.1%
CCOCCCNC(=O)Cn1nc(-c2ccccc2)ccc1=O	5	-6%	-6%	-2.0%
C[C@H](NC(=O)N1CCn2c1nc1ccccc12)C(=O)NCc1ccco1	x	13%	2%	7.2%
CC1(C(=O)O)C=CCN1C(=O)c1ccccc1 (stereo not given)	5&-4	6%	-6%	-2.5%
O=C(OCC(=O)N1N=C(c2ccc(Cl)cc2)CC1c1ccco1)c1ccccc1O (stereo not given)	-4	8%	-12%	-1.3%
CCN1C(=O)[C@H]2[C@H]3CN=C(SC)N3[C@@](Cc3ccccc3)(C(=O)OC)[C@H]2C1=O	x	u	x	1.1%
CCNC(=O)NC(=O)C(C)OC(=O)c1oc2ccc(OC)cc2c1C (stereo not given)	-10	4%	-2%	4.5%
O=S(=O)(c1ccc(N2CCCC2)nc1)N1CCCC1	-4	-8%	2%	-0.9%
CC(=O)N1[C@H](Cc2ccccc2)C=C[C@]1(C)C(=O)NCCc1c[nH]c2ccccc12	0	u	-18%	0.4%
CC(C(=O)O)n1cc(Cl)cn1 (stereo not given)	-9	u	-2%	0.6%
O=C(COc1ccc(-n2ccnc2)cc1)Nc1cccc(Cl)c1	4	-6%	19%	-4.6%
CCOc1ccc(C(=O)NCc2ccco2)cc1	8	0%	-22%	2.0%
CCN1CCN(CC(=O)NC2CCCCC2)C(=O)C1=O	1	-16%	-3%	4.8%
CCOC(=O)C1=C(N)n2c(s/c(=C\c3ccco3)c2=O)=C(C(=O)OC(C)C)C1c1ccco1 (stereo not given)	-15	u	-4%	u

Record cards, as listed above. Order of values: GLA inh pH 4.5	Rango dissoc inh	miR-21 FLuc	Rango complex inh
CCN1C(=O)[C@H]2[C@H]3CN=C(SC)N3[C@@](Cc3ccccc3)(C(=O)OC)[C@H]2C1=O across the screens: x	u	x	1.1%
CC(=O)N1[C@H](Cc2ccccc2)C=C[C@]1(C)C(=O)NCCc1c[nH]c2ccccc12 across the screens: 0	u	-18%	0.4%
CC1(C(=O)O)C=CCN1C(=O)c1ccccc1 (stereo not given) across the screens: 5&-4	6%	-6%	-2.5%
COc1ccc(OC)c(/C=C/C(=O)OCC(=O)N2CCN(S(=O)(=O)c3ccc(C)cc3C)CC2)c1 across the screens: x	-12%	x	0.6%

More structures follow.
SMILES	GLA inh pH 4.5	Rango dissoc inh	miR-21 FLuc	Rango complex inh
CS(=O)(=O)NN1C(=O)c2ccccc2NC1c1ccccc1O (stereo not given)	-12[21.1 µM]	-10%	-2%	-2.3%
COc1cccc(CN2CCN(C(=O)c3cccc4ccccc34)CC2)c1OC	2	17%	4%	0.0%
COc1ccc(CNS(=O)(=O)c2ccc(-n3cnnn3)c(OC)c2)cc1	x	6%	0%	4.8%
O=C(CN1CCN(S(=O)(=O)N2CCCCCC2)CC1)Nc1cc(Cl)ccc1Cl	x	26%	0%	-4.0%
N#Cc1nc(Cc2ccccc2)oc1N1CCCC1	5	14%	-56%	-5.4%
COc1cccc(CNC(=O)c2cc(COc3c(F)cccc3F)on2)c1	-2	4%	-11%	0.6%
CC(=O)c1cc(C#N)c(SCc2ccccc2)nc1C	-3	0%	-73%	1.2%
CCOC(=O)N1CCC(NS(=O)(=O)c2cc3c(cc2Br)CCN3C(=O)CC)CC1	x	-13%	x	3.8%
CCCCN(CCCC)Cc1ccc(C(=O)NNC(=O)Nc2ccc(F)cc2)o1	-9[21.1 µM]	-4%	0%	u
COc1ccccc1C(=O)NCc1ccco1	x	1%	-8%	1.2%
Cc1ccc(Nc2nc(N)nc(CN3CCN(C)CC3)n2)cc1C	1	x	3%	x
CCC(=O)NNC(=O)Cc1c(C)n(C(=O)c2ccc(Cl)cc2)c2ccc(OC)cc12	x	7%	-3%	-0.7%
CN(C)c1ncnc2c1ncn2C1CCCO1 (stereo not given)	x	41%	x	-1.1%
COc1ccccc1NC(=O)c1cc(Br)ccc1Cl	-4	-1%	1%	2.4%
O=C(Nc1cccc(C(F)(F)F)c1)C1C2CC3OC(=O)C1C3C2 (stereo not given)	-1	1%	-8%	1.4%
CCn1cc(SCC(=O)N2CCOCC2)c2ccccc21	6	0%	-41%	0.7%
COc1ccc(-c2csc(N(CCCN(C)C)C(=O)c3ccccc3C)n2)cc1	x	3%	u	-1.5%
CC(Oc1ccccc1)C(=O)Nc1nnc(S(=O)(=O)N(C)c2ccccc2)s1 (stereo not given)	x	-12%	8%	0.2%
Cc1cc(NC(=O)C2CCCN(S(=O)(=O)c3c(C)noc3C)C2)n[nH]1 (stereo not given)	-2	1%	0%	-2.5%
COc1cc(-c2cc(C(=O)O)c3cc4c(cc3n2)OCCO4)cc(OC)c1OC	4	4%	-7%	3.1%
Clc1ccc2c(c1)[C@H]1OCC[C@H]1[C@@H](c1ccco1)N2	-2	-5%	-70%	u
O=C(NC[C@@H]1CCCO1)c1cccc2c1C(=O)c1ccc(N3CCOCC3)cc1S2(=O)=O	x	-8%	x	u
CN(CC(=O)Nc1ccccc1Br)C(=O)CNC(=O)c1ccc2c(c1)OCO2	x	-13%	x	1.0%
Cc1ccc(NC(=O)c2cccc(S(=O)(=O)N(C)c3ccccc3)c2)cc1S(=O)(=O)N1CCOCC1	-8	4%	u	-3.2%
NS(=O)(=O)c1ccc(Sc2ccc3ccccc3c2)nc1	x	11%	3%	1.3%
Cc1ccc(C(=O)Nc2ccccc2C(=O)N2CCCCC2C)cc1 (stereo not given)	x	1%	-8%	-1.9%
COc1ccccc1NC(=O)CSc1nnc(C)o1	-14	-1%	1%	-1.6%
O=C(O)c1ccc(/C=C/C(=O)c2ccc3c(c2)OCCCO3)cc1	x	0%	-10%	-5.3%
CCC(C)c1ccc(S(=O)(=O)Nc2cccnc2)cc1 (stereo not given)	x	-1%	3%	1.9%
COc1ccc(NC(=O)CN2CCN(c3nc(-c4ccc(F)cc4)cs3)CC2)c(OC)c1	1	13%	-2%	-2.5%
COc1ccccc1N(C)S(=O)(=O)c1ccc(C(=O)NNC(=O)c2ccccc2O)cc1	x	0%	x	5.4%
COc1ccc(NC(=O)c2ccccc2N2C(=O)C3C4C=CC(C5CC45)C3C2=O)c(OC)c1 (stereo not given)	x	10%	14%	1.0%
CC(=O)N(Cc1cc2cc(C)c(C)cc2n2nnnc12)CC1COCCO1 (stereo not given)	1	3%	-1%	-0.4%
FC(F)(F)c1cccc(N2CCN(CC3CC4C=CC3C4)CC2)c1 (stereo not given)	-5	-5%	-2%	3.7%
O=C(CC1Sc2ccccc2NC1=O)NCc1ccccc1 (stereo not given)	-6	9%	-5%	2.0%
Clc1ccc(SCCCCn2cncn2)cc1	6	-19%	-15%	-1.0%
Cc1ccc(C(=O)N2CCC(C(=O)c3c(C)cc(C)cc3C)CC2)cc1	x	-11%	5%	0.6%
C/C(=C\C(=O)c1ccc(Br)cc1)NNC(=O)c1ccc(O)cc1	x	-4%	-13%	-0.1%
Oc1ccc2c(c1)oc1cc(O)ccc12	3	0%	-31%	2.7%
O=C(CSc1ncnc2nc[nH]c12)N1CCOCC1	2	-6%	-1%	-2.7%
CCCCOC(=O)C1=C(C)Nc2ncnn2C1c1ccc(OC)c(OC)c1 (stereo not given)	2	21%	-9%	-0.5%
COc1ccc(N(C)S(=O)(=O)c2cccc(C(=O)NC3CCCC3)c2)cc1	-5	0%	0%	3.6%
N=c1c(C(=O)NCCc2ccccc2)cc2c(=O)n3ccccc3nc2n1CC1CCCO1 (stereo not given)	x	u	1%	u
CN(C)c1ccc(NC(=O)CSCc2nc3c(nnn3Cc3ccc(F)cc3)c(=O)[nH]2)cc1	2	1%	-8%	-4.2%
Cc1cc(C)c(C(=O)OCCNC(=O)c2cccnc2)cc1C	-1	10%	-1%	-0.7%
CCOC(=O)C1=C(N)n2c(s/c(=C\c3cccnc3)c2=O)=C(C#N)C1c1cccnc1 (stereo not given)	x	-14%	x	0.1%
CCCCN1C[C@H](Cc2ccccc2)[C@@H](CC(=O)Nc2ccccc2)C1=O	x	0%	5%	-0.4%
O=C1CCC(/C=C/c2ccccc2)=NN1Cc1ccccc1	1	1%	-4%	-0.3%
Cc1cc(NC(=O)C2CC2)ccc1NC(=O)c1cccs1	x	1%	-19%	3.3%
COC(=O)Cn1ccc(-c2ccc(Cl)cc2)c(C#N)c1=O	3	0%	1%	1.2%
O=C(CSc1nnc(-c2ccccc2F)n1C1CC1)Nc1ccc2[nH]c(=O)[nH]c2c1	3	5%	0%	-3.2%
CC(C)NC(=O)COc1coc(CN2CCN(c3cccc(Cl)c3)CC2)cc1=O	x	2%	6%	2.6%
O=c1[nH]c(CSc2nnc3ccccn23)nc2cc(C(F)(F)F)ccc12	-8	x	0%	x
COc1ccc(NC(=O)CCc2nc(-c3ccc(C)cc3)no2)c(OC)c1	-12	-21%	-3%	-5.6%
COC(=O)c1ccccc1NC(=O)CSc1nncn1-c1ccccn1	x	4%	-3%	-2.2%
Cc1ccccc1C(=O)N1CCC(C(=O)Nc2ccccc2N2CCCC2)CC1	x	-12%	x	9.8%
Cc1cc(C(=O)OCC(=O)N2CC(=O)Nc3ccccc32)no1	0	-9%	-4%	u
CCOC(=O)/C(=N\Nc1ccccc1Cl)N1CCN(C)CC1	-9	35%	-18%	u
COc1ccccc1CNC(=O)c1nccnc1CO	x	1%	-1%	-0.2%
Cc1ccc(NC(=O)c2ccco2)c(NC(=O)c2ccc(Cl)cc2)c1	x	10%	11%	-0.4%
Further records follow.
SMILES	GLA inh pH 4.5	Rango dissoc inh	miR-21 FLuc	Rango complex inh
NC(=O)C1CC(=O)N(c2ccc(OCC(=O)Nc3cccc(C(F)(F)F)c3)cc2)C1 (stereo not given)	-2	-7%	-5%	-0.7%
CC1(C)CC(=O)C2=C(C1)N(c1ccc(F)cc1)C(=O)C2(NC(=O)c1ccccc1F)C(F)(F)F (stereo not given)	-7	0%	0%	-1.1%
Nc1ccc(Cl)c(S(=O)(=O)Nc2ccc(Cl)cc2)c1	4	6%	1%	-0.2%
O=C(CSc1nnc(Nc2ccccc2)s1)Nc1ccc(S(=O)(=O)N2CCOCC2)cc1	-3	2%	11%	4.0%
O=C(O)c1cccc(Nc2nc3ccccc3nc2NS(=O)(=O)c2ccccc2)c1	x	8%	x	0.1%
CCC1CCCCN1C(=O)CSc1nnc(CNC(=O)c2c(F)cccc2Cl)o1 (stereo not given)	x	7%	6%	-2.4%
CCOc1ccc(NC(=O)c2cn(-c3ccc(OCC)cc3)c(=O)c3cc(OC)c(OC)cc23)cc1	-7	-20%	4%	u
C/C(CC(=O)NCCCN1CCOCC1)=N\NC(=O)COc1cccc2ccccc12	-2	7%	-6%	2.2%
COc1cccc(C2=NC(C)(C)NC(c3ccccc3O)C2)c1 (stereo not given)	-2	3%	-43%	0.9%
Cc1ccc(CN2C(=O)CCSc3ccc(Cl)cc32)cc1	4	-2%	0%	8.9%

Already shown: 2 of the compounds above.
SMILES	GLA inh pH 4.5	Rango dissoc inh	miR-21 FLuc	Rango complex inh
CS(=O)(=O)NN1C(=O)c2ccccc2NC1c1ccccc1O (stereo not given)	-12[21.1 µM]	-10%	-2%	-2.3%
COc1cccc(CN2CCN(C(=O)c3cccc4ccccc34)CC2)c1OC	2	17%	4%	0.0%

Assay outcomes: PubChem, National Center for Advancing Translational Sciences (NCATS)
